Hedgehog inh: blocks Sonic Hedgehog signaling | Shh-LIGHT2 Gli-luciferase reporter, 30 h | inhibition, % (test concentration not listed) | 2.1% of 22,000 active;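 active = replicate mean of 65% or more; inconclusive = mean lower but half the replicates past it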;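 note: pathway switched on by Shh-conditioned medium diluted 1 in 25 in low serum; 100 nL library stock added to about 40 µL; 0% = median of neutral wells and 100% = positive control level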
PD-1 reversal: reversal of PD-1 mediated T-cell inhibition; primary human CD4 T cells, PD-L1 beads, CellTiter-Glo 96 h; 29,000 tested, under 10 active; activation, % (no concentration beside the values);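 active = replicate mean of 50% or more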;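 note: 0% = median vehicle wells and 100% = positive control; 100 nL library stock added to about 50 µL; numbers are from one replicate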
YB-1 expression: YB-1 expression inhibition | U2OS, qRT-PCR YB-1 vs CDIP delta delta Cp, 16 h; hits give high values; zero = DMSO, each unit about twofold | delta delta Cp (YB-1 minus CDIP) (no concentration beside the values) | 0.37% of 30,000 active | AID 434959;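 active = delta delta Cp rounded down to an integer at or above 3, about 3 SD of DMSO wells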;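 note: higher means less YB-1 transcript or more CDIP transcript relative to DMSO; stock transfer was 100 nL into about 100 µL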
MITF inh: MITF inhibition. inhibition, % (no concentration beside the values). 0.28% of 37,000 active. TRPM1 promoter luciferase, luminescence, 24 h;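 active = most replicates at 85% or more, or half of them and the mean; inconclusive = half reach 85% but not the mean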;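 note: human melanocyte line stably carrying TRPM1 promoter luciferase reporter; 0% = vehicle wells and 100% = a positive control; the first replicate is given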
The depositor's hits bear a star; ? = inconclusive; · = not tested or not shown. An excerpt (hit frequency here may not be typical).

SMILES	Hedgehog inh	PD-1 reversal	YB-1 expression	MITF inh
C[C@@H]1CN([C@H](C)CO)C(=O)c2cccc(NC(=O)CCCCCC(=O)Nc3ccccc3N)c2O[C@@H]1CN(C)Cc1ccccc1	·	0.9	-0.7	-25
Cc1ccc(S(=O)(=O)Nc2ccc3c(c2)CC(=O)N([C@H](C)CO)C[C@H](C)[C@H](CN(C)S(=O)(=O)c2cn(C)cn2)O3)cc1	-22	·	-0.35	-2
Cc1noc(C)c1NC(=O)N(C)C[C@@H]1Oc2c(NS(C)(=O)=O)cccc2C(=O)N([C@@H](C)CO)C[C@H]1C	-48	·	0.33	-1
O=C(COc1ccccc1[N+](=O)[O-])Nc1cc(-c2nc3ccccc3s2)c(Cl)cc1Cl	·	1.2	·	44
Cc1ccc(S(=O)(=O)Nc2ccc3c(c2)C(=O)N([C@@H](C)CO)C[C@@H](C)[C@@H](CN(C)Cc2ccccc2)O3)cc1	·	·	0.045	12
Cc1ccc(NS(=O)(=O)c2ccccc2)c(NS(=O)(=O)c2ccccc2)c1	32	0.3	-0.077	7
Cc1noc(C)c1S(=O)(=O)N(C)C[C@H]1OCCCC[C@@H](C)Oc2ccc(NC(=O)CCC(F)(F)F)cc2C(=O)N([C@H](C)CO)C[C@@H]1C	-1	·	0.25	-5
C[C@H]1CN([C@@H](C)CO)C(=O)c2cc(NS(C)(=O)=O)ccc2O[C@H]1CN(C)Cc1ccc(C(=O)O)cc1	-17	·	-0.023	3
COc1ccc(CN(C)C[C@@H]2Oc3ccc(NC(=O)Nc4cccc5ccccc45)cc3CC(=O)N([C@H](C)CO)C[C@H]2C)cc1	·	-0.5	0.08	1
C[C@@H]1CN([C@@H](C)CO)C(=O)c2cc(NC(=O)C3CCCCC3)ccc2O[C@H]1CN(C)Cc1ccccc1	35	·	-0.031	1
C=CCN1C(=O)/C(=C/c2cc(C)n(CCOC)c2C)C(=O)NC1=S	3	2.5	-0.023	22
Cc1ccc([N+](=O)[O-])cc1NC(=O)C1CCCN(S(=O)(=O)c2ccc(F)cc2)C1 (stereo not drawn)	·	0.0	·	22
Cc1cc(=O)[nH]c(SCCCOc2ccc([N+](=O)[O-])cc2)n1	·	-0.6	·	9
O=C(CSc1ncn(-c2ccccc2)n1)Nc1ccccc1Br	·	-1.8	·	18
COc1cc(O)cc2c1C(=O)OC(C)C2 (stereo not drawn)	-46	2.0	-0.43	6
C[C@@H]1CN([C@H](C)CO)C(=O)c2cccc(NC(=O)c3ccncc3)c2O[C@@H]1CN(C)CC1CC1	10	1.7	-0.52	4
C[C@@H]1CN([C@H](C)CO)C(=O)c2cc(NS(C)(=O)=O)ccc2O[C@@H]1CN(C)Cc1ccc(Cl)c(Cl)c1	·	0.5	0.2	-14
COc1ccc(NC(=O)Nc2cccc3c2O[C@@H](CN(C)Cc2ccc(Oc4ccccc4)cc2)[C@H](C)CN([C@H](C)CO)C3=O)cc1	-20	-1.2	0.0084	15
Cc1noc(C)c1NC(=O)N(C)C[C@@H]1Oc2ccc(NC(=O)Nc3ccc4c(c3)OCO4)cc2C(=O)N([C@H](C)CO)C[C@@H]1C	22	0.3	-0.59	-3
COc1ccc(C)cc1N(CC(=O)Nc1ccc(Br)cc1F)S(C)(=O)=O	·	1.6	·	20
C[C@@H]1CN([C@H](C)CO)C(=O)Cc2cc(NC(=O)Cc3ccccc3)ccc2O[C@@H]1CN(C)Cc1ccc(Cl)c(Cl)c1	26	-4.1	-0.042	28
O=C(Nc1cccc(NC(=O)c2ncn[nH]2)c1)c1cccc(Cl)c1	·	-2.3	·	-2
Cc1cc(NS(=O)(=O)c2ccc(NC(=O)c3csc4ccccc34)cc2)no1	·	-0.4	·	39
C[C@H]1CN([C@@H](C)CO)C(=O)c2cccc(NS(=O)(=O)c3ccc(Cl)cc3)c2O[C@@H]1CN(C)S(=O)(=O)c1ccc(F)cc1	-25	0.1	0.36	-2
Nc1cc(-c2ccccc2)ccc1O	·	-0.6	0.05	-1

The list continues:
SMILES	Hedgehog inh	PD-1 reversal	YB-1 expression	MITF inh
C[C@H](CO)N1C[C@H](C)[C@H](CN(C)Cc2ccccc2)Oc2c(NC(=O)c3ccc(-c4nccs4)cc3)cccc2C1=O	-22	0.6	-0.09	6
C[C@@H]1CCCCO[C@H](CN(C)S(=O)(=O)c2ccc(Cl)cc2)[C@@H](C)CN([C@H](C)CO)C(=O)c2cc(NS(C)(=O)=O)ccc2O1	10	·	-0.074	5
C[C@H]1CN([C@@H](C)CO)C(=O)c2cccc(NC(=O)Nc3cccc4ccccc34)c2O[C@@H]1CN(C)S(=O)(=O)c1ccccc1	-38	·	0.23	-30
COc1ccc(S(=O)(=O)N(C)C[C@H]2Oc3ccc(NC(=O)Nc4c(C)noc4C)cc3CC(=O)N([C@@H](C)CO)C[C@H]2C)cc1	-26	·	-0.28	-2
C[C@H](CO)N1C[C@H](C)[C@H](CN(C)C(=O)Nc2ccccc2)Oc2ccc(NC(=O)C3CCCCC3)cc2C1=O	·	-3.3	-0.032	-7
C=C(C(=O)O[C@H]1C/C=C(/C)C[C@H](O)[C@H]2[C@H](C)C(=O)O[C@@H]2/C=C\1C)[C@@H]1CCC(=C)[C@@H]2C[C@H](O[C@@H]3O[C@H](COC(=O)CC(=O)O)[C@@H](O)[C@H](O)[C@H]3O)C(=C)[C@@H]2C1	-2	-3.0	0.25	2
O=C(CSc1nnc(-c2cccnc2)n1-c1ccccc1)Nc1ccc2c(c1)OCCO2	·	-0.9	·	3
Cc1cc2nc(-c3ccc(C)c(NC(=O)COc4ccc([N+](=O)[O-])cc4)c3)oc2cc1C	·	0.5	·	6
C[C@H]1CN([C@@H](C)CO)C(=O)c2cc(NC(=O)Nc3cccc4ccccc34)ccc2O[C@H]1CN(C)Cc1ccc(C(=O)Nc2ccccc2N)cc1	·	-2.2	0.5	33
C[C@@H]1CN([C@@H](C)CO)C(=O)c2cc(NC(=O)Nc3ccccc3)ccc2O[C@H]1CN(C)Cc1ccc(C(=O)O)cc1	·	0.4	0.28	1
COc1ccc(S(=O)(=O)Nc2ccc3c(c2)C(=O)N([C@@H](C)CO)C[C@@H](C)[C@@H](CN(C)C(=O)Nc2ccc(C(F)(F)F)cc2)O3)cc1	-11	-0.5	0.049	27
CCN(CC)C(=S)NC(=S)c1ccc(C)cc1	-6	-6.8	-0.26	-4
COc1ccc(CN(C)C[C@@H]2Oc3c(NC(=O)c4nc5ccccc5s4)cccc3C(=O)N([C@H](C)CO)C[C@H]2C)cc1	22	-1.4	-0.35	10
CCc1ccccc1OCC(=O)Nc1sc2c(c1C(N)=O)CCCC2	·	-10	·	21
Cc1noc(C)c1NC(=O)N(C)C[C@@H]1Oc2ccc(NS(=O)(=O)c3ccc(F)cc3)cc2CC(=O)N([C@@H](C)CO)C[C@@H]1C	-20	·	0.85	-7
C[C@H](CO)N1C[C@H](C)[C@H](CN(C)C(=O)Nc2ccccc2)Oc2c(NC(=O)c3cnccn3)cccc2C1=O	-1	·	-0.3	-14
C[C@H]1CN([C@@H](C)CO)C(=O)c2cc(NS(C)(=O)=O)ccc2O[C@@H]1CN(C)S(=O)(=O)c1ccc(F)cc1	·	·	0.2	-15
c1coc(Cn2c(SCc3nc4ccccc4[nH]3)nnc2-c2ccco2)c1	·	-1.7	·	16
Clc1ccc2nc(NCc3ccccn3)nc(-c3ccccc3)c2c1	·	-5.2	·	33
CCC(=O)Nc1ccc(Cl)c(NC(=O)COc2ccc(Br)cc2)c1	·	-0.5	·	-6
Cc1cccc(-n2c(SCCC(=O)O)nnc2-c2cccs2)c1C	·	-1.7	·	-4
CC(C)NC(=O)N(C)C[C@H]1Oc2c(NS(=O)(=O)c3ccc(F)cc3)cccc2C(=O)N([C@H](C)CO)C[C@H]1C	-9	0.5	0.33	0
CCc1nc(SCC(=O)Nc2ccc(C(C)=O)cc2)n[nH]1	·	1.5	·	-21
O=C(NCCNS(=O)(=O)c1ccccc1)c1ccc([N+](=O)[O-])cc1	·	1.0	·	-4
COc1ccc(S(=O)(=O)Nc2ccc3c(c2)C(=O)N([C@H](C)CO)C[C@H](C)[C@H](CN(C)Cc2ccccc2)OCCCC[C@@H](C)O3)cc1	0	·	-0.023	3

Overlap with the part before: 2 entries; new compounds follow.
SMILES	Hedgehog inh	PD-1 reversal	YB-1 expression	MITF inh
O=C(NCCNS(=O)(=O)c1ccccc1)c1ccc([N+](=O)[O-])cc1	·	1.0	·	-4
COc1ccc(S(=O)(=O)Nc2ccc3c(c2)C(=O)N([C@H](C)CO)C[C@H](C)[C@H](CN(C)Cc2ccccc2)OCCCC[C@@H](C)O3)cc1	0	·	-0.023	3
COC(=O)/C(=C1\OC(=O)C(c2ccccc2)C1=O)c1ccccc1 (stereo not drawn)	-52	·	0.24	-24
C[C@@H]1CN([C@@H](C)CO)C(=O)c2cc(NC(=O)C3CCCCC3)ccc2O[C@@H]1CN(C)C(=O)Nc1ccc2c(c1)OCO2	-5	0.6	-0.34	-1
COc1ccc(Cl)cc1NC(=O)CSc1nc2ccc(NC(=O)c3ccc(C)cc3)cc2s1	·	0.0	·	16
CC(CC(O)C1OC1(C)C)[C@@H]1CCC2(C)C3=CCC4C(C)(C)C(=O)CCC4(C)C3CC[C@@]12C (stereo partly drawn)	23	·	-0.21	60
COc1ccc(NC(=O)Nc2ccc3c(c2)C(=O)N([C@@H](C)CO)C[C@H](C)[C@@H](CN(C)Cc2ccncc2)O3)cc1	18	1.4	0.091	-9
Cc1c(CCC(=O)O)c(=O)oc2cc(OCc3ccccc3F)ccc12	·	2.5	·	-56
C[C@H]1CN([C@@H](C)CO)C(=O)Cc2cc(NC(=O)Nc3ccc(F)cc3)ccc2O[C@H]1CN(C)Cc1ccncc1	?	0.7	-0.077	-5
CS(=O)(=O)N(CC(=O)Nc1ccc(F)cc1F)c1ccc(Cl)cc1	·	0.6	·	-14
C[C@@H]1CCCCO[C@@H](CN(C)C(=O)Nc2cccc3ccccc23)[C@@H](C)CN([C@H](C)CO)C(=O)c2cc(N(C)C)ccc2O1	0	·	-6.7	2
C[C@H](CO)N1C[C@H](C)[C@H](CN(C)C(=O)Nc2ccc(C(F)(F)F)cc2)Oc2ccc(NS(=O)(=O)c3ccc(Cl)cc3)cc2C1=O	·	·	-0.18	32
O=C(O)CN(c1cc(Cl)cc(Cl)c1)S(=O)(=O)c1ccccc1	·	1.5	·	7
C[C@H](CO)N1C[C@H](C)[C@@H](CN(C)Cc2ccccc2)Oc2ccc(NS(=O)(=O)c3ccc(F)cc3)cc2C1=O	·	-0.9	-0.026	1
Cc1noc(C)c1NC(=O)Nc1ccc2c(c1)C(=O)N([C@H](C)CO)C[C@H](C)[C@@H](CN(C)Cc1ccc(-c3ccccc3)cc1)O2	-1	·	0.069	-9
C[C@@H]1CN([C@H](C)CO)C(=O)c2cccc(NS(=O)(=O)c3ccccc3)c2O[C@H]1CN(C)Cc1ccc(Oc2ccccc2)cc1	-37	·	0.06	-1
CCOC(=O)c1ccccc1NC(=O)COc1ccccc1	·	-0.5	·	-29
CCOc1cc(S(=O)(=O)NC2CC(C)(C)NC(C)(C)C2)ccc1F	·	2.0	·	-13
COC(=O)c1cc(OC)c(OC)cc1NC(=O)CN1C(=O)c2ccccc2C1=O	·	2.7	·	3
Cc1cc(C)nc(NS(=O)(=O)c2ccc(NC(=O)NC3CCCCC3)cc2)n1	·	0.6	·	-9
C[C@@H]1CN([C@@H](C)CO)C(=O)c2cc(NC(=O)Nc3ccccc3)ccc2O[C@H]1CN(C)C(=O)Nc1ccc(C(F)(F)F)cc1	8	-2.5	0.11	34
CNC[C@H]1Oc2c(NC(=O)c3cc(C)nn3C)cccc2C(=O)N([C@H](C)CO)C[C@@H]1C	-1	-0.4	0.76	8
CC1=CC2=NC(C(F)(F)F)(C(F)(F)F)NC(=O)N2C=C1	5	-0.1	-0.16	-12
COc1ccc(S(=O)(=O)Nc2ccc3c(c2)CC(=O)N([C@@H](C)CO)C[C@H](C)[C@@H](CN(C)S(=O)(=O)c2cn(C)cn2)O3)cc1	-19	·	0.14	-4
C=CC[C@@]12C[C@@H](OC)C(=O)C(OC)=C1O[C@H](c1ccc3c(c1)OCO3)[C@H]2C	-34	·	-0.72	·

Structures above that have a CF3 group:
SMILES	Hedgehog inh	PD-1 reversal	YB-1 expression	MITF inh
Cc1noc(C)c1S(=O)(=O)N(C)C[C@H]1OCCCC[C@@H](C)Oc2ccc(NC(=O)CCC(F)(F)F)cc2C(=O)N([C@H](C)CO)C[C@@H]1C	-1	·	0.25	-5
COc1ccc(S(=O)(=O)Nc2ccc3c(c2)C(=O)N([C@@H](C)CO)C[C@@H](C)[C@@H](CN(C)C(=O)Nc2ccc(C(F)(F)F)cc2)O3)cc1	-11	-0.5	0.049	27
C[C@H](CO)N1C[C@H](C)[C@H](CN(C)C(=O)Nc2ccc(C(F)(F)F)cc2)Oc2ccc(NS(=O)(=O)c3ccc(Cl)cc3)cc2C1=O	·	·	-0.18	32
C[C@@H]1CN([C@@H](C)CO)C(=O)c2cc(NC(=O)Nc3ccccc3)ccc2O[C@H]1CN(C)C(=O)Nc1ccc(C(F)(F)F)cc1	8	-2.5	0.11	34
CC1=CC2=NC(C(F)(F)F)(C(F)(F)F)NC(=O)N2C=C1	5	-0.1	-0.16	-12
